RE007 growth inh = qHTS Assay for Inhibitors of the HIV-1 protein Vpr; S. pombe RE007 Vpr strain, BacTiter-Glo ATP luminescence, 24 h; control for the full effect not named in the record; Potency, µM (highest dose often 92.2 µM), without a hit: top-dose activity change, negative = less growth; 360,000 compounds, 0.21% hits; AID 651644, 2012; active = well fitted falling curve with a large enough effect; inconclusive = small, poorly fitted or top-dose-only effect; inactive = no such curve, though single readings can be large or run the other way;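 also: % is scaled to controls: 0 for no effect and ±100 for the full control effect; nearly all actives have a fitted effect of over 50% in size; the assay follows cell death caused by Vpr and the record does not say whether a fall means rescue or toxicity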
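Fission yeast RE007 carrying one integrated HIV-1 vpr copy, seeded at OD 0.01 in PMG+AL medium with 23 nL pinned compound. Grown 24 h at 30 degrees; viability read by BacTiter-Glo luminescence after 5 min.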
LASV entry inh = qHTS for Inhibitors of binding or entry into cells for Lassa Virus. Lassa virus pseudotype entry inhibition, cell reporter; control for the full effect not named in the record. Potency, µM (top dose mostly 37.9 µM), for inactives: top-dose activity change, negative = inhibition, most hits filed as inhibitors. 300,000 compounds, 1.2% hits; active means well fitted inhibition curve with a large enough effect; inconclusive means small, poorly fitted or top-dose-only effect, or effect the other way; inactive means flat fitted curve, though single readings scatter; tested in HEK293 cells; also: % is scaled to controls: 0 for no effect and ±100 for the full control effect; nearly all actives have a fitted effect of over 50% in size; luciferase read-out
Cruzain inh Det = qHTS Assay for Promiscuous and Specific Inhibitors of Cruzain (with detergent); Potency, µM, inactives show max response, negative = inhibition, most hits filed as inhibitors; purified cruzain, Z-FR-AMC fluorescence, 0.01% Triton; 200,000 compounds, 0.43% hits;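 also: plate controls were neutral wells for no effect and buffer without enzyme for full effect; nearly all actives have a fitted effect of over 40% in size; top concentration of the series not given in the record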
Target sequence (P25779 123-467 limits assumed): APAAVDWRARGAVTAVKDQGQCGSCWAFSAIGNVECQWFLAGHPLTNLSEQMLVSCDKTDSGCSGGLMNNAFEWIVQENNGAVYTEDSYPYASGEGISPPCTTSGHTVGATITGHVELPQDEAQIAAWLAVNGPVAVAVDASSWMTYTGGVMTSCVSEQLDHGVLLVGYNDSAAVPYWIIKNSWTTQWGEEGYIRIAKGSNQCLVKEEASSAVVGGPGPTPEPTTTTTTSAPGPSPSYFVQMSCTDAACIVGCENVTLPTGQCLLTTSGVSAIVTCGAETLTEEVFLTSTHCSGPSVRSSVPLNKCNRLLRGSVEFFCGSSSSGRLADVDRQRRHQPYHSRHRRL
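In this qHTS format, compounds are incubated with 1.5 nM cruzain for 15 min at room temperature before 2 uM Z-FR-AMC is added. Release of AMC is followed at 360/450 nm, and progress is taken as the 60 s fluorescence difference.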
SARS PLP yeast = qHTS of Yeast-based Assay for SARS-CoV PLP. 330,000 compounds, 0.19% hits. S. cerevisiae expressing SARS-CoV PLpro, growth rescue; control for the full effect not named in the record. Potency, µM (highest dose often 32.9 µM), inactives show at the top dose activity, positive = growth rescue. AID 485353, 2010; active means well fitted rising curve with a large enough effect; inconclusive means small, poorly fitted or top-dose-only effect; inactive means no such curve, though single readings can be large or run the other way; also: 0% is about no effect; nearly all actives have a fitted effect of over 55% in size; growth read by luminescence after 48 h
Cruzain noTriton = qHTS Assay for Promiscuous and Specific Inhibitors of Cruzain (without detergent) | Cruzipain (Trypanosoma cruzi), P25779 | purified cruzain, Z-FR-AMC fluorescence, no detergent | Potency, µM, for the others: max response, negative = inhibition, hits mostly inhibitors | 200,000 compounds, 2.3% hits | AID 1476, 2009;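 also: plate controls were enzyme without inhibitor for no effect and buffer without enzyme for full effect; nearly all actives have a fitted effect of over 40% in size; top concentration of the series not given in the record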
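Detergent-free condition (0.00005% Triton X-100) in acetate buffer pH 5.5 with DTT. 1.5 nM enzyme and compound were pre-mixed 15 min, then 2 uM Z-FR-AMC substrate added; reaction progress from fluorescence change between first and third reads (60 s).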
StopGo reporter = High Throughput Screening for Foot and Mouth Disease Virus Antivirals. human cells with a luciferase reporter of 2A StopGo recoding; control for the full effect not named in the record. Potency, µM (top dose mostly 57.9 µM), for the others: top-dose signal change, negative = less light. 410,000 compounds, 1.2% hits. AID 1159524, 2015; active = well fitted falling curve with a large enough effect; inconclusive = small, poorly fitted or top-dose-only effect; inactive = no such curve, though single readings can be large or run the other way; tested in HEK293T cells; also: % is scaled to controls: 0 for no effect and ±100 for the full control effect; nearly all actives have a fitted effect of over 45% in size; luciferase light after 4 h
NS1 inh = qHTS Assay for Inhibitors of Influenza NS1 Protein Function; S. cerevisiae slowed by influenza A NS1, growth recovery by OD600; Potency, µM (titrated, usually from 46.1 µM), for the others: top-dose activity, positive = more growth; 270,000 compounds, 0.4% hits; AID 2326, 2010; active means well fitted rising curve with a large enough effect; inconclusive means small, poorly fitted or top-dose-only effect; inactive means no such curve, though single readings can be large or run the other way; also: nearly all actives have a fitted effect of over 50% in size
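Recovery from NS1-induced slow growth read by OD600 in budding yeast switched to galactose assay medium (pH 6.0, -URA) at 1:100 dilution. Compound 23 nl per well; the matching strain lacking NS1 serves as control.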
MARV entry inh = qHTS for inhibitors of binding or entry into cells for Marburg Virus; AID 540276, 2011; Marburg virus pseudotyped entry inhibition, cell reporter; control for the full effect not named in the record; about a third of the inactives were read at about 46 µM; 300,000 compounds, 1.8% hits; Potency, µM (doses to about 37.8 µM), for the others: at the highest dose activity change, negative = inhibition, most hits filed as inhibitors; active = well fitted inhibition curve with a large enough effect; inconclusive = small, poorly fitted or top-dose-only effect, or effect the other way; inactive = flat fitted curve, though single readings scatter; tested in HEK293 cells; about a fifth of its hits are not listed in these tables; also: % is scaled to controls: 0 for no effect and ±100 for the full control effect; luciferase read-out
An asterisk follows results filed as active; ? = inconclusive; . = not tested or not shown; [ ] = another dose, or the depositor's remark. Unless noted, calls follow the shape of the dose curve; as a rule, active = well fitted curve in the direction sought with a large enough effect; inconclusive = small, poorly fitted or top-dose-only effect, or another doubt; inactive = no such curve, though single readings can be large; an effect the other way counts as inactive or inconclusive. Potency is read from the fitted curve at half-maximal effect.

The line under a structure holds: RE007 growth inh	LASV entry inh	Cruzain inh Det	SARS PLP yeast	Cruzain noTriton	StopGo reporter	NS1 inh	MARV entry inh
Cc1cc(C)c2c(n1)nn1c(C)c(CCC(=O)NCc3ccc(Cl)cc3)c(C)nc21
 : .	?	0.1%	.	2%	6%	.	1%[46.1 µM]
COC(=O)C1=NNC2C(=O)N(C3CCCCC3)C(=O)C12 (centres undefined)
 : 13%	0%[46.1 µM]	.	2%	.	-5%	4%	2%[46.1 µM]
COC(=O)C(O)(CC(=O)Nc1ccc(Cl)cc1Cl)C(F)(F)F (centres undefined)
 : -1%	6%	0.2%	-35%	10%	.	14%	21%
O=C(Nc1ccc(-n2ccnc2P(=O)(O)c2ccccc2)cc1)c1ccccc1Cl
 : 7%	?	0.9%	2%	8%	-21%	2%	28%
CN(C(=O)CSc1nnc(C2CC2)n1C1CC1)C1(C#N)CCCCC1
 : 19%	-4%	.	2%	.	-12%	.	?
COc1ccc(C(=O)NNC(=O)CSc2nc(C(C)C)nc3ccccc23)cc1
 : 1%	-12%[46.1 µM]	.	1%	.	-14%	-10%	?
CCCOc1ccc(C2C(=O)N(C3CCCCCC3)CC(=O)N2Cc2ccc(OC)cc2)cc1OC (centres undefined)
 : .	?	1.3%	.	19%	-20%	.	.
CC(C)N(C(=O)COC(=O)Cn1cnc2ccccc21)c1ccccc1
 : 11%	-17%	.	0%	.	-18%	.	-4%[46.1 µM]
Cc1nc2cc(-c3cccc(F)c3)nn2c(C)c1CCC(=O)N1CCN(c2ccc(F)cc2)CC1
 : .	-1%[46.1 µM]	2.0%	.	2%	?	.	?
Cc1oc(S(=O)(=O)N(C)C)cc1C(=O)Nc1ccc(Cl)cc1
 : 3%	.	.	0%	.	-26%	-6%	.
O=C1C2CC=CCC2C(=O)N1Cc1nnc(-c2ccc(Cl)cc2)o1 (centres undefined)
 : 7%	.	.	2%	.	46%[activator]	-1%	.
CCCCNC(=O)NC12CC3CC(CC(C3)C1)C2
 : 3%	?	.	0%	.	-2%	.	-2%[46.1 µM]
COc1ccc(CNC(=O)c2ccc3c(c2)N(Cc2cc(C)ccc2C)C(=O)CS3)cc1
 : .	8%[46.1 µM]	0.3%	.	12%	11%	.	2%[46.1 µM]
CN(C)CCNC(=O)c1csc(Nc2cccc3ccccc23)n1
 : -6%	?	.	.	.	6%	4%	10µM*
CCOC(=O)c1cc(-c2ccccc2)n(CCC(=O)NCCc2cccc(C)c2)c1C
 : .	-25%[46.1 µM]	-8.0%	.	18%	-21%	.	.
CCCC(=O)N(Cc1cc(=O)[nH]c2ccccc12)c1ccc(C)cc1C
 : 2%	.	.	-1%	.	-21%	1%	.
COc1ccccc1NS(=O)(=O)c1cccs1
 : 1%	0%	3.0%	-12%	-10%	.	5%	14%
Cc1ccccc1Nc1c(-c2ccccc2O)nc2sccn12
 : .	5%[46.1 µM]	-10.0%	.	?	-10%	.	3%[46.1 µM]
CSc1ccc(-c2nc(CN3CCCCC3c3cccnc3)c(C)o2)cc1 (centres undefined)
 : -12%	-3%[46.1 µM]	.	1%	.	-30%	-3%	?
Cc1ccc(NC(=O)Cn2cnc3sc(C(=O)O)c(C)c3c2=O)cc1Cl
 : .	?	0.0063µM*	.	6%	-10%	.	.
Cc1nn(C2CCCCC2)c(N)c1-c1ccccc1
 : -1%	4%	3.0%	-4%	7%	-2%	-21%	1%
COC(=O)c1c(Oc2ccc(Br)cc2)nnc(-c2ccccc2)c1-c1ccccc1
 : .	?	-3.9%	.	-22%	?	.	?
CCOc1ccc(-c2cc3c(=O)n(CC(=O)Nc4cc(F)ccc4C)ccn3n2)cc1
 : .	?	0.3%	.	-3%	28%	.	.
CCN(c1ccccc1)S(=O)(=O)c1nnc(NC(=O)C(C)Oc2ccccc2)s1 (centres undefined)
 : .	?	-0.9%	.	-4%	-12%	.	.
CCCCOc1ccc(-c2nnc(-c3cc[n+](C)cc3)o2)cc1
 : 0%	3%	.	-1%	.	-8%	4%	6%[46.1 µM]
CC(C)/C=C/CN1CCCC(N2CCN(c3cccc(Cl)c3)CC2)C1 (centres undefined)
 : -5%	.	.	-1%	.	-19%	-8%	.
COc1ccc(-c2csc(NC(=O)CSCC(=O)Nc3cc(C)on3)n2)c(OC)c1
 : 22%	1%	.	-2%	.	6%	.	3%
O=C(CC1C(=O)NCCN1Cc1ccc(F)cc1)NCCN1CCCc2ccccc21 (centres undefined)
 : 4%	.	.	0%	.	-21%	6%	.
CC(C)c1ccc(-c2cc(C(=O)N3CCOCC3)c3cc(Br)ccc3n2)cc1
 : -1%	-16%	.	6%	.	-13%	18%	-20%
CCOC(=O)C(=O)/C(C#N)=C/Nc1ccc(F)cc1
 : -1%	-2%	0.2%	8%	6%	-19%	15%	12%

Reprinted from the part before: two entries, then new ones.
The line under a structure holds: RE007 growth inh	LASV entry inh	Cruzain inh Det	SARS PLP yeast	Cruzain noTriton	StopGo reporter	NS1 inh	MARV entry inh
CC(C)c1ccc(-c2cc(C(=O)N3CCOCC3)c3cc(Br)ccc3n2)cc1
 : -1%	-16%	.	6%	.	-13%	18%	-20%
CCOC(=O)C(=O)/C(C#N)=C/Nc1ccc(F)cc1
 : -1%	-2%	0.2%	8%	6%	-19%	15%	12%
O=c1[nH]c(SCc2ccc(Br)cc2)nc2c1CCCC2
 : .	-6%[46.1 µM]	-3.1%	.	-4%	-20%	.	-26%[46.1 µM]
O=C(NCc1ccccc1Cl)c1ccc(CSCc2ccccc2Cl)o1
 : .	-24%[46.1 µM]	-0.8%	.	0%	6%	.	.
O=C(Nc1nc(-c2ccccn2)cs1)c1ccc([N+](=O)[O-])o1
 : -7%	?	.	-3%	.	2%	-2%	?
CC(C)c1ccc(/C=C2\SC(N3CCOCC3)=NC2=O)cc1
 : 9%	?	.	-1%	.	-20%	-2%	5%[46.1 µM]
COc1ccc(NC(=O)CC(C)n2ccnc2)cc1 (centres undefined)
 : 0%	-7%[46.1 µM]	.	1%	.	2%	3%	-23%[46.1 µM]
Cc1c(OCC(=O)NCc2ccncc2)ccc2c3c(c(=O)oc12)CCCC3
 : -2%	.	.	2%	.	-16%	12%	.
O=C(Cn1nnc(-c2ccccc2-n2cnnn2)n1)c1ccccc1
 : 0%	9%	3.2%	6%	-21%	.	3%	6%
COc1ccc(/C=C/C(=O)NC(=S)Nc2ccc(S(N)(=O)=O)cc2)cc1OC
 : -3%	?	.	-2%	.	-14%	23%	-24%
CCOC(=O)CN(C(=O)CNC(=O)c1cccs1)C(C(=O)NC1CCCCC1)c1cccs1 (centres undefined)
 : -4%	1%	-1.5%	13%	-1%	-5%	-9%	-7%
CNC(=O)Oc1ccc(-c2cn3cc(Cl)ccc3n2)cc1
 : -25%	7.3µM*	-7.8%	8%	-11%	?	4%	8.2µM*
COc1ccc(-n2c(SC(C)C(=O)Nc3ncc(Cl)cc3Cl)nc3ccccc32)cc1 (centres undefined)
 : 7%	0.25µM*	-8.0%	1%	-9%	-13%	19%	?
CC1CN(S(=O)(=O)c2cccc(C(=O)OCCOc3ccccc3)c2)CC(C)O1 (centres undefined)
 : -23%	?	.	-9%	.	?	.	-53%
O=C(CN1C(=O)NC2(CCCC2)C1=O)Nc1nc2ccccc2[nH]1
 : 15%	3%	.	2%	.	-6%	.	?
CCc1ccc(OCC(=O)NNC(=O)c2ccc(-n3cncn3)c([N+](=O)[O-])c2)cc1
 : 2%	4%	.	.	.	-6%	.	13%
COc1ccccc1CN1CCN(Cc2ccco2)CC1
 : -7%	4%	.	-1%	.	-7%	-1%	-4%
O=C(Nc1ccc(F)cc1)c1ccccc1CC[N+](=O)[O-]
 : -2%	-1%	3.0%	3%	0%	-7%	-5%	4%[46.1 µM]
COC(=O)c1c(C)nn(-c2ccc(OC(F)(F)F)cc2)c1-c1snnc1C
 : 6%	?	.	0%	.	35µM*	5%	?
CCOC(=O)c1[nH]c(C)c(C(=O)N2CCc3c([nH]c4ccccc34)C2c2ccccn2)c1C (centres undefined)
 : -1%	.	.	-1%	.	?	6%	.
O=C(OCC(=O)N1CCCC1)c1cc(Br)ccc1Cl
 : 12%	-2%[46.1 µM]	.	0%	.	-20%	-4%	?
O=C(CSCc1cccc(F)c1)N1CCN(c2ccccc2)CC1
 : -13%	19%	4.7%	0%	-7%	29%	-15%	10%
CCCCNC(=O)c1onc(CSc2ccc(Cl)cc2)c1C(=O)O
 : 4%	.	-1.7%	-9%	4%	?	-9%	.
Cc1cccc(C)c1NC(=O)CN(C)C(=O)COc1cccc2c1OC(C)(C)C2
 : 2%	-18%	.	5%	.	-4%	.	3%[46.1 µM]
O=C(N/N=C/C(Br)=C\c1ccccc1)c1ccc2nc[nH]c2c1
 : .	-23%	-22%	-23%	-3%	8%	10%	?
CCOCCCn1c(SCC(=O)Nc2ccccc2Cl)nc2c(oc3ccccc32)c1=O
 : .	.	-0.6%	.	5%	?	.	-1%[46.1 µM]
O=C(Nc1ccc(F)cc1)NC1CCN(Cc2nnnn2Cc2ccco2)CC1
 : 5%	?	-2.7%	9%	-2%	4%	-6%	13%
O=C1NC2(CCCCCC2)C(=O)N1Cc1cccc([N+](=O)[O-])c1
 : -20%	-4%[46.1 µM]	.	2%	.	-6%	-4%	-19%[46.1 µM]
CCc1ccc(C(CNC(=O)c2ccc3c(=O)n(-c4ccccc4F)c(=S)[nH]c3c2)N(C)C)cc1 (centres undefined)
 : 7%	.	.	1%	.	?	.	?
NC(=O)COC(=O)c1ccccc1SCC(=O)NC1CCCCCCC1
 : -4%	9%	.	3%	.	10%	.	18%

Screening data: PubChem BioAssay, National Center for Advancing Translational Sciences (NCATS)
